# Screens: PubChem, National Center for Advancing Translational Sciences (NCATS)
# gsp ag: gsp mutant agonism; gsp mutant cells, cAMP HTRF, 30 min; control for the full effect not named in the record; Potency, µM (titrated, usually from 76.9 µM), without a hit: at the top dose activation (cAMP increase), usual class: activators; actives 0.13% (n = 340,000); active = well fitted activation curve with a large enough effect; inconclusive = small, poorly fitted or top-dose-only effect, or another doubt; inactive = no such curve, though single readings can be large or run the other way; cell line not stated here;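 also: phosphodiesterase inhibitor Ro 20-1724 added with compounds to block cAMP breakdown; potency is read from the fitted curve at half-maximal effect; nearly all actives have a fitted effect of over 60% in size; about a fifth of the inactives were tested at one dose only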
#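 Cells in DMEM/10% FBS with G418 were pretreated with compounds in DMSO plus […] (300 uM stock) for 30 min at 37C. cAMP was measured by HTRF (cAMP-d2 plus anti-cAMP antibody-K) after 30 min at room temperature.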
# TRPV1 PAM: human TRPV1 potentiation; TRPV1-expressing cells, Fluo-8 calcium influx, capsaicin EC20 potentiation; host cell line not named in the record; control for the full effect not named in the record; actives 0.02% (n = 320,000); Q8NER1; potentiation, % at 8.33 µM; active means potentiation above 80%; inconclusive means 30% to 80%; inactive means below 30%; also: 0% is about no effect
# Target sequence (Q8NER1 whole entry, looked up): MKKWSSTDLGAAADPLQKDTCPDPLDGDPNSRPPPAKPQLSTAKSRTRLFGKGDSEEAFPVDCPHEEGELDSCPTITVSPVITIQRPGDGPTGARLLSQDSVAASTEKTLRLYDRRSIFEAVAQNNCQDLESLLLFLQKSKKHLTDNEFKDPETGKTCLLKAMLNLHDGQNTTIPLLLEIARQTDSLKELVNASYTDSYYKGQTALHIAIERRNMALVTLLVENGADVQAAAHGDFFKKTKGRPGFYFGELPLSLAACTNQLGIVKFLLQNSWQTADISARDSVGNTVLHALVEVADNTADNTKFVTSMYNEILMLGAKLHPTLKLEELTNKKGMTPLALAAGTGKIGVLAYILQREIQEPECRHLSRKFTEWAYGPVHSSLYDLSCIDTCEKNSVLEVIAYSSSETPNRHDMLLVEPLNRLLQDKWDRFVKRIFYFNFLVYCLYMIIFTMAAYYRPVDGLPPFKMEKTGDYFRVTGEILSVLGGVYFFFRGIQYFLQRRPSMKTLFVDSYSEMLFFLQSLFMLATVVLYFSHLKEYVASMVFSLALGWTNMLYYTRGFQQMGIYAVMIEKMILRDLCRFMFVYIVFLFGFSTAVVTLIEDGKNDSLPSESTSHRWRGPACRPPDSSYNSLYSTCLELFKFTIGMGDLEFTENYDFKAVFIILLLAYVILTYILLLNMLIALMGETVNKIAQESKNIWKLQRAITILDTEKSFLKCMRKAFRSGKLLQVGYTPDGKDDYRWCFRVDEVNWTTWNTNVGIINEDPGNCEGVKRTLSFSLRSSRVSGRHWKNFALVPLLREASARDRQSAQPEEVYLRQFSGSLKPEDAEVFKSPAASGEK
#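 Cells expressing TRPV1 were dye-loaded with Fluo-8 and read kinetically: 10 s baseline, 3 min after compound (agonist portion), then 2 min after EC20 capsaicin (allosteric enhancer portion). Calcium-bound dye fluorescence at 480/520 nm.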
# Sfp inh: inhibitors of Bacillus subtilis Sfp phosphopantetheinyl transferase. Potency, µM, without a hit: max response, negative = inhibition, usual class: inhibitors. actives 3.5% (n = 310,000). Q9F4F7. Biochemical Sfp PPTase activity, qHTS; active = well fitted inhibition curve with a large enough effect; inconclusive = small, poorly fitted or top-dose-only effect, or another doubt; inactive = no such curve, though single readings can be large or run the other way;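 also: the enzyme is Sfp with the accession as filed and its product quenches rhodamine fluorescence; potency is read from the fitted curve at half-maximal effect; 0% = enzyme reaction without inhibitor and -100% = no enzyme wells; top concentration of the series not given in the record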
#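 Sfp 15 nM + cpd, 15 min RT; start w/ rhodamine-CoA 5 uM, BHQ-2-YbbR 12.5 uM (final); 50 mM Hepes pH 7.6, 10 mM MgCl2, 0.01% NP-40, 0.01% BSA; read 525/598 nm at 0 and 30 min.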
# CtBP-E1A blk: CtBP/E1A binding inhibition; actives 0.49% (n = 340,000); AID 651724; activity change, % (concentration not given with the values); AlphaScreen GST-E1A/His-CtBP binding, 1536-well; hits give low values; control for the full effect not named in the record; in the data active means activity change below about -65%; inconclusive means about -30% to -65%; inactive means above about -30%; also: % is scaled to controls: 0 for no effect and ±100 for the full control effect
#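 Homogeneous bead-based format: GST-tagged E1A captured on glutathione donor beads, His-tagged CtBP on nickel acceptor beads; compounds precede bead addition by 2 h at 37 °C.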
# gsp antagonist: antagonizes gsp, the McCune-Albright syndrome mutation. gsp-mutant cells, cAMP HTRF, 30 min; control for the full effect not named in the record. Potency, µM (series often up to 76.9 µM), without a hit: top-dose activity change, negative = inhibition, most hits filed as inhibitors. actives 0.4% (n = 340,000); active = falling curve of any shape with a large fitted effect; inconclusive = falling curve, mostly with a smaller effect; inactive = flat or rising curve; cell line not stated here;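 also: intracellular cAMP measured with PDE inhibitor Ro 20-1724 present during compound exposure; potency is read from the fitted curve at half-maximal effect; % is scaled to controls: 0 for no effect and ±100 for the full control effect; nearly all actives have a fitted effect of over 65% in size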
#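 Measurement of cellular cAMP by homogeneous time-resolved fluorescence following a 30 min compound exposure at 37C. The PDE inhibitor […] was present throughout; the assay buffer was DPBS with 0.05% BSA and 0.005% Tween 20.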
# Menin-MLL FL inh: menin-MLL binding inhibition, fluorescein peptide; Fluorescence polarization, fluorescein-MLL peptide displacement from menin; FP activity change, % at 61.4 µM; 290,000 tested, under 10 active; AID 1766; inconclusive = falling polarisation curve, or a change in total fluorescence; inactive = total fluorescence flat and polarisation flat or rising; no compound was filed as active; the % refers to the polarisation; negative = inhibition;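 also: % of control where 0% means no effect; inhibitors lower the polarisation; unlabelled MLL peptide was the positive control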
# ClpP mod: qHTS Assay for Activators of ClpP; ATP-dependent Clp protease proteolytic subunit (Bacillus subtilis (strain 168)), P80244; purified B. subtilis ClpP, FRET peptide cleavage, 20 min; Potency, µM (titrated, usually from 57.5 µM), inactives show at the highest dose activity change, negative = active; actives 1.9% (n = 340,000); AID 651965, 2013; active = well fitted falling curve with a large enough effect; inconclusive = small, poorly fitted or top-dose-only effect; inactive = no such curve, though single readings can be large or run the other way; also: potency is read from the fitted curve at half-maximal effect; the source files actives as falling curves though it sought activators and does not explain the sign; nearly all actives have a fitted effect of over 65% in size; many hits overshoot -100%
# Target sequence (P80244 whole entry, looked up): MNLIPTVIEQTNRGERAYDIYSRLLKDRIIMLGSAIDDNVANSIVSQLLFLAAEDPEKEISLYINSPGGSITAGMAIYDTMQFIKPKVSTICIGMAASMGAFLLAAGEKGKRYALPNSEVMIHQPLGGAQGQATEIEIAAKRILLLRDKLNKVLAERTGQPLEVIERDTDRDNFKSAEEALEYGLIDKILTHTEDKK
#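 ClpP 10 microg/mL final, pH 8 Tris/KCl buffer with BSA, glycerol, Tween-20; compound pinned in; FRET-FV substrate; RT 20 min; Ex320/Em430; ΔFRET vs ADEP 5.8 microM, DMSO, no enzyme.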
# The depositor's hits bear a star; u = inconclusive; x = not tested or not shown; [ ] = remark or other dose.
# The line under a structure holds: gsp ag	ClpP mod	CtBP-E1A blk	Menin-MLL FL inh	gsp antagonist	TRPV1 PAM	Sfp inh
COc1ccccc1C=NC(CO)C(O)c1ccc([N+](=O)[O-])cc1 (centres undefined)
    -1%	-19%	4	-2.7	8%	8	5%
COc1ccc(N(CCC(=O)O)S(=O)(=O)c2ccc(C)c(C)c2)cc1
    -10%[15.4 µM]	x	6	-0.6	-5%	-2	34%[activator]
CCCS(=O)(=O)N1CCN(S(=O)(=O)c2ccc(F)cc2)CC1
    4%	-1.6%	10	4.8	6%	-1	6%
COCCn1c(C)cc(C(=O)COC(=O)CNC(=O)c2ccco2)c1C
    -5%	-1.3%	-6	x	-2%	-4	x
CCOC(=O)N1CCN(Cc2nc3cc(NC(=O)C(C)C)ccc3n2CC)CC1
    3%[15.4 µM]	-1.5%	-15	1.8	6%	-2	12%
Cn1c(NC(=O)C[n+]2cc(-c3ccc(Cl)cc3)n3c2CCC3)cc(=O)n(C)c1=O
    19%	1.1%	-8	-1.4	11%	3	10%
COc1ccc(CCN(C)Cc2ccc(OCc3ccccc3)c(OC)c2)cc1OC
    -3%	0.0%	-19	2.2	9%	6	-109%
S=C(Nc1ccc2nccnc2c1)N1CCOCC1
    16%[15.4 µM]	x	-1	-4.5	6%	-4	35µM*
O=C1CC(N2CCN(c3cccc(C(F)(F)F)c3)CC2)C(=O)N1c1ccccc1F (centres undefined)
    -36%[inhibitor]	u	-1	1.6	6%	22	2%
COc1ccccc1C(=O)COC(=O)COc1ccc(C#N)cc1
    -17%	1.7%	4	x	-31%	x	x
Cc1cc(NC(=O)CCC(=O)N(c2ccccc2C)C(C(=O)NC2CCCC2)c2ccccc2)no1 (centres undefined)
    3%[15.4 µM]	x	2	0.3	-12%	3	15%
O=C(Nc1cccc(-c2ccc(N3CCCCC3)nn2)c1)C(F)(F)F
    -19%	0.1%	x	-0.3	-22%	-23	5%
Cc1c(Cl)cccc1NC(=S)NC(=O)c1cncc(Br)c1
    -36%[15.4 µM]	x	-7	x	-30%	x	x
O=C1NC(=S)N/C1=C/c1cccc([N+](=O)[O-])c1
    4%[15.4 µM]	x	-11	1.6	4%	1	11%
CCOC(=O)c1cccc(N2C(N)=NC(N)=NC2(C)C)c1
    -41%[inhibitor]	-1.1%	1	1.3	3%	-2	19%
COc1cc(NC(=O)CCCNC(=O)c2ccc(Cl)cc2)cc(OC)c1OC
    11%	-1.3%	x	4.1	3%	14	2%
CC12CCC(O)CC1=CCC1C2CCC2(C)c3[nH]ncc3CC12 (centres undefined)
    7%	x	-18	x	u	x	x
S=C(NCc1cccs1)Nc1ccccc1Cl
    -1%	1.0%	-3	-0.1	10%	-1	-2%
COc1ccc(OCCC(=O)OCC(=O)Nc2cccc(S(=O)(=O)N3CCCCC3)c2)cc1
    -3%[15.4 µM]	2.0%	4	x	2%	x	x
COC(=O)C1=C(N)Oc2cc(C)oc(=O)c2C1c1cccnc1 (centres undefined)
    -46%[inhibitor]	-6.0%	11	2.4	12%	-3	16%
COCC(=O)Nc1ccccc1C(=O)NC(C)C
    -4%	-4.3%	6	2.9	6%	0	16%
COc1ccc(-c2nnc(OC)c3ccccc23)cc1
    u	-1.0%	x	-1.8	-6%	8	24%
COc1ccccc1N1C(=NC(=O)C(C)Oc2ccccc2)SC2CS(=O)(=O)CC21 (centres undefined)
    u	0.1%	2	-3.3	2%	9	4%
COc1ccc(S(=O)(=O)N2CCOCC2)cc1NC(=O)CSc1nnnn1C1CC1
    23%	0.7%	0	x	19%	0	x
C=CCOc1c(Br)cc(/C=N/NC(=O)Cc2ccc(C(F)(F)F)cc2[N+](=O)[O-])cc1OC
    21%[15.4 µM]	-0.6%	8	6.9	-6%	-6	25%
COc1ccc(N2CCN(C(=O)CN(C)S(=O)(=O)c3cnc[nH]3)CC2)cc1
    -17%	-5.4%	-1	2.2	-2%	3	8%
COc1ccc(C(=O)/C=C/c2ccc(OC3CSC3)cc2)cc1
    5%[15.4 µM]	0.1%	-7	2.1	1%	-3	-1%
Cn1nc(C(F)(F)F)c(-c2cccc(C(F)(F)F)c2)c1NC(=O)Nc1ccc(F)cc1
    -18%[15.4 µM]	x	0	3.8	2%	-11	15%
COc1ccc(/C=C/C(=O)NC(=S)Nc2ccc(S(=O)(=O)N=C(N)N)cc2)cc1OC
    -3%[15.4 µM]	-2.4%	-4	-1.7	-3%	5	25%
CNc1oc(Cc2ccccc2)nc1S(=O)(=O)c1ccccc1
    0%	-1.9%	-3	1.4	-3%	1	50µM*

# Whole records, looked up by structure:
# COC(=O)C1=C(N)Oc2cc(C)oc(=O)c2C1c1cccnc1 (centres undefined) is listed as gsp ag: -46%[inhibitor]; ClpP mod: -6.0%; CtBP-E1A blk: 11; Menin-MLL FL inh: 2.4; gsp antagonist: 12%; TRPV1 PAM: -3; Sfp inh: 16%
# COc1ccc(-c2nnc(OC)c3ccccc23)cc1 is listed as gsp ag: u; ClpP mod: -1.0%; CtBP-E1A blk: x; Menin-MLL FL inh: -1.8; gsp antagonist: -6%; TRPV1 PAM: 8; Sfp inh: 24%
# COc1ccc(N2CCN(C(=O)CN(C)S(=O)(=O)c3cnc[nH]3)CC2)cc1 is listed as gsp ag: -17%; ClpP mod: -5.4%; CtBP-E1A blk: -1; Menin-MLL FL inh: 2.2; gsp antagonist: -2%; TRPV1 PAM: 3; Sfp inh: 8%

# Next section.
# The line under a structure holds: gsp ag	ClpP mod	CtBP-E1A blk	Menin-MLL FL inh	gsp antagonist	TRPV1 PAM	Sfp inh
O=[N+]([O-])c1ccc(Cl)c(S(=O)(=O)Nc2cccc(S(=O)(=O)NC3=NCCC3)c2)c1
    -2%	x	-3	x	1%	x	x
COC(=O)[C@@]12CCCN1[C@H](c1ccc(-c3ccc4c(c3)OCO4)cc1)[C@H]1C(=O)N(C)C(=O)[C@H]12
    x	-2.1%	-5	x	-5%	x	x
Cc1ccc(-n2c(=O)cc(N3CCCCCC3)[nH]c2=O)cc1
    1%	0.8%	-10	1.0	10%	-24	10%
Cc1cccc(NC(=O)CSc2nc3ccccc3c(=O)n2C)c1C
    u	-1.6%	2	x	x	x	x
COc1ccc(OC2CCN(S(=O)(=O)c3ccc(C(C)=O)cc3)CC2)cc1
    3%	0.9%	1	0.7	-18%	-8	-2%
CCOc1ccc(N2C(=O)/C(=C/c3cccs3)N(C)C2=S)cc1
    -83%[inhibitor]	1.1%	-13	0.2	6%	-5	-10%
COc1cccc(C2c3[nH]c4ccccc4c3CCN2CCCn2cccn2)c1 (centres undefined)
    -2%[15.4 µM]	x	-12	-0.6	3%	-6	12%
O=C(CCNS(=O)(=O)c1ccccc1)NNC(=O)COc1ccccc1F
    -16%	0.6%	-3	x	6%	x	x
Cc1ccc(F)cc1NC(=O)c1c(-c2ccccc2)noc1C
    -43%[inhibitor]	-0.8%	5	0.6	0%	2	-2%
COc1ccccc1NC(=O)Cc1nnc(SCC(=O)NC2CCCC2)n1C
    8%[15.4 µM]	x	7	-7.6	7%	-13	18%
Cc1cccc(NC(=O)CSc2ccc(-c3ccccn3)nn2)c1C
    41%[15.4 µM]	x	-75*	-2.0	7%	2	-5%
Fc1cccc(NC(=S)Nc2ccc(Br)cc2)c1
    -5%	-2.7%	-3	-5.9	u	3	-14%
CC(=O)OCC(=O)Nc1ccc(SC(F)F)cc1
    u	x	0	-4.5	3%	-17	21%
O=C(NC(NC(=O)c1ccccc1)c1cccc([N+](=O)[O-])c1)c1ccccc1
    u	-1.1%	0	6.8	-16%	12	-4%
Cc1c(Br)c([N+](=O)[O-])nn1C(C)C(=O)Nc1nccs1 (centres undefined)
    -14%	-0.6%	-9	1.3	-24%	13	3%
CCCC(=O)Nc1cc(C(=O)O)ccc1S(=O)(=O)c1ccc(Cl)cc1
    3%[15.4 µM]	0.6%	7	-0.9	-8%	7	1%
CC(/C=C/c1ccc2c(c1)OCO2)=N\NC(=O)COc1ccccc1C
    6%	u	2	-0.7	-4%	23	-1%
COc1ccc(N2CC(C(=O)Nc3ccccc3C(=O)NC3CC3)CC2=O)cc1 (centres undefined)
    -39%[inhibitor]	x	7	4.8	0%	17	19%
O=C(Nc1ccc(OC(=O)c2ccccc2)c(-c2nc3ccccc3s2)c1)c1ccccc1
    -23%	-22%	8	1.6	2%	-1	10%
COc1ccccc1NC(=O)C(=O)c1cn(CC(=O)N2CCCC2)c2ccccc12
    u	0.9%	-9	x	u	-4	-2%
O=C(OCc1ccc(F)cc1Cl)c1ccccn1
    -1%	0.6%	3	-1.1	0%	-24	12%
Cc1cc(C)c(NC(=O)CC(=O)c2ccccc2)c(Cl)c1
    8%[15.4 µM]	x	-1	-5.9	11%	-10	-6%
CC(O)Cn1ccccc1=N (centres undefined)
    -57%[inhibitor]	16µM*	5	-9.0	-4%	1	1%
O=C(COC(=O)/C=C/c1cccc(Br)c1)NC1CC1
    14%	-1.5%	-14	x	-2%	-8	x
COC(=O)c1ccc(N2CCN(CC(=O)c3ccc(C)cc3)CC2)c([N+](=O)[O-])c1
    4%	-25%	x	x	-8%	x	x
CCOc1ccc(C2C(C(=O)/C=C/c3ccco3)=C(O)C(=O)N2CCN2CCOCC2)cc1OC (centres undefined)
    -9%[15.4 µM]	x	-11	u	-7%	-23	56µM*
O=S(=O)(c1cc(Cl)ccc1Cl)N1CCC2(CC1)OCCO2
    u	1.9%	4	x	9%	30	8%

# 3 compounds out of the list above, ordered by the number in gsp ag, low to high.
Structure,gsp ag
Fc1cccc(NC(=S)Nc2ccc(Br)cc2)c1,-5%
COc1ccc(OC2CCN(S(=O)(=O)c3ccc(C(C)=O)cc3)CC2)cc1,3%
CC(/C=C/c1ccc2c(c1)OCO2)=N\NC(=O)COc1ccccc1C,6%
